High-throughput results as filed in PubChem.
Prx2 Sm inh: Schistosoma mansoni Prx2 inhibition; S. mansoni Prx2 activity coupled to TGR/GSH (TGR is thioredoxin glutathione reductase), NADPH fluorescence loss, qHTS; some inactives read as strong as hits; Potency, µM; actives 0.07% (n = 65,000); AID 448; active means full or partial inhibition curve with a strong effect at the top dose; inconclusive means weaker partial or single-point curve; inactive means no accepted curve; note: series up to 57 µM; many of its hits are not listed in these tables
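Enzyme mix: 100 uM NADPH, 25 nM TGR, 700 uM GSH, 50 nM Prx2 in 100 mM phosphate pH 7.4, 10 mM EDTA, 0.01% Tween-20. 15 min RT with compound; NADPH/GSH added, H2O2 starts reaction; NADPH fluorescence read 8 min.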
LT uptake inh: inhibitors of anthrax lethal toxin internalization; Cells, anthrax lethal toxin internalization, FRET ratio (460/530); Potency, µM (doses to about 40 µM), without a hit: at the top dose activity change, negative = inhibition, most hits filed as inhibitors; actives 0.67% (n = 70,000); AID 912; active = well fitted falling ratio curve with the 530 nm signal flat; inconclusive = other ratio curves, or a change in one channel alone; inactive = flat curves in the ratio and both channels; the % refers to the ratio; note: % is set by controls: 0 for no effect and ±100 for the full control effect; nearly all actives have a fitted effect of over 50% in size; tested in ME-180 cells; beta-lactamase reporter
* hit, by the source's call; ? = inconclusive; / = no result given; & = joins results of further samples; [ ] = dose if it differs, or a comment. Potency is the fitted concentration of half-maximal effect. An excerpt; rates above refer to the full screens.

SMILES | Prx2 Sm inh | LT uptake inh
CC12CCC(C(=O)N3CCN(C(=O)C45CCC(C)(C(=O)O4)C5(C)C)CC3)(OC1=O)C2(C)C | / | -10.7%
COc1ccccc1N1CCN(CCCCNS(=O)(=O)c2cccc3c(N(C)C)cccc23)CC1 | >57 | ?
Cn1c(=N)c(S(=O)(=O)c2ccccc2)cc2c(=O)n3ccccc3nc21 | >57 | ?
COc1ccc(C2C3=C(CC(C)(C)CC3=O)Nc3c2c(=O)[nH]c2nc(C)nn32)cc1 (stereo not given) | >57 | -3.7%
C[C@@H]1CCC/C=C\[C@H]2C[C@H](O)C[C@@H]2[C@H](O)/C=C\C(=O)O1 | >57 | ?
CCCOc1cccc(C(=O)O)c1 | >57 | 9.3%
CCCCCCCCCCCCCCC/C=C\[C@H](O)[C@@H](NC(=O)CCCCCCCCCCCCC)OC (tested in a mixture with another compound) | >25.6 | 6.3%
CNc1cc(-c2c(C)noc2C)ncn1 | / | 2.5%
COc1ccc(-c2nc3cnc(OC)nc3n(-c3ccccc3)c2=O)cc1 | >57 | ?
Cc1nc2cnc(N(C)C)nc2n(C2CC2)c1=O | >57 | 1.4%
c1ccc(-c2nc(N3CCN(c4ccccc4)CC3)nc(-n3ccnc3)n2)cc1 | >57 | ?
CCOC(=O)c1cnc2c(cnn2CC)c1NN=C(C)C | >57&>57 | 29.3%&12.3%
O=C(CN1C(=O)COc2ccccc21)NCCC1=CCCCC1 | >57 | 4.8%
CC(C)(C)NC[C@@H](O)COc1ccccc1C1CCCC1 | >57 | -13.1%[3.58 µM]
CC1(C)N([O-])C(c2cccs2)=C[N+]1=O | >57 | 14.7%
CC12CCCCC1N(O)CN2O (stereo not given) | >57 | 4.7%
CCCCSc1nc(C)c(CC(=O)O)c(=O)[nH]1 | >57 | -17.5%
CC1(C)S[C@@H]2[C@H](NC(=O)[C@@H](N)c3ccccc3)C(=O)N2[C@H]1C(=O)O[C@H]1OC(=O)c2ccccc21 | >57 | -7.0%[3.58 µM]
COC(=O)c1cnn2c(C(F)(F)F)cc(-c3ccco3)nc12 | >57 | 16.1%
CCn1cc(Br)c(C(=O)N(C)Cc2ccccc2)n1 | >57 | 2.9%
Cc1[nH]c2ccc(Br)cc2c(=O)c1CN1CCCCC1 | >57 | /
COc1cc(C(=O)NCc2ccc(-c3nc4ccccc4o3)cc2)cc(OC)c1OC | >57 | 14.1%
O=C(N/N=C\c1ccc([N+](=O)[O-])o1)c1ccc(O)cc1 | / | 3.5%[3.58 µM]
CC(=O)NCCC(Cc1ccccc1)c1ccco1 (stereo not given) | >57 | ?
CC(=O)c1cc2c(cc1NC(=O)CN1CCN(c3ccc(F)cc3)CC1)OCO2 | >57 | 0.0%

Part of the list above, reformatted:
mol	Prx2 Sm inh	LT uptake inh
CC12CCCCC1N(O)CN2O (stereo not given)	>57	4.7%
CCCCSc1nc(C)c(CC(=O)O)c(=O)[nH]1	>57	-17.5%
CC1(C)S[C@@H]2[C@H](NC(=O)[C@@H](N)c3ccccc3)C(=O)N2[C@H]1C(=O)O[C@H]1OC(=O)c2ccccc21	>57	-7.0%[3.58 µM]
COC(=O)c1cnn2c(C(F)(F)F)cc(-c3ccco3)nc12	>57	16.1%
CCn1cc(Br)c(C(=O)N(C)Cc2ccccc2)n1	>57	2.9%

(cont.)
SMILES | Prx2 Sm inh | LT uptake inh
Cc1ccc(-n2nnnc2SCc2nnc(-c3ccccc3Br)o2)c(C)c1 | >57 | -12.5%
CCOc1ccc(C(=O)Nc2ccncc2)cc1 | >57 | 8.8%
Fc1ccc(Nc2nc(-c3ccoc3)nc3ccccc23)cc1 | >57 | ?
Cc1nc2ccc(S(=O)(=O)NCC(=O)NCCN3CCCCC3C)cc2s1 (stereo not given) | >57 | ?
O=C(C1CC(c2ccc(F)cc2)=NO1)N1CCc2ccccc2C1 (stereo not given) | >57 | ?
O=C(O)c1ccc(NC(=O)C2CCCCC2)cc1 | >57 | -9.1%
CCOc1ccccc1-n1c(SCC(N)=O)nnc1-c1cccnc1 | >57 | -4.1%
CCOC(=O)N1CCN(C(c2ccc(C(C)C)cc2)c2sc3nc(C)nn3c2O)CC1 (stereo not given) | >57 | 10.4%
CC1CCN(c2nc(-c3ccco3)c3c(c2C#N)CC(C)(C)OC3)CC1 | >57 | 31.3%
CCc1nnc(NC(=O)CSc2nnc(-c3ccco3)n2C)s1 | >57 | ?
COCC(=O)NC1CCN(C(=O)Nc2ccc(Br)cc2)CC1 | >57 | -0.4%
CC(C)n1ncc(C(N)=O)c1N | >57 | 8.3%
CC(=O)c1cccc(NC(=O)N2CCCC2C(=O)NCc2ccc(F)cc2)c1 (stereo not given) | >57 | 7.7%
O=C(O)c1ccccc1NCc1ccncc1 | >57 | /
Cn1cccc1C1(C(F)(F)F)NCCNC1=O (stereo not given) | >57 | -2.5%
COC(=O)[C@H](CCSC)NC(=O)NCc1ccccn1 | >57 | -8.2%
O=C(OCN1C(=O)c2ccccc2C1=O)c1cccs1 | / | -9.5%
N#Cc1c(C(F)(F)F)cc(C2CC2)[nH]c1=O | >57 | -11.3%
CCOc1ccc(C(=O)Nc2cc(C)on2)cc1OCC | >57 | -5.0%
CC(C)OCCCNC(=O)c1cccs1 | >57 | 2.1%
CCOC(=O)C1(C(F)(F)F)N=C(c2cccnc2)OC(N2CCOCC2)=N1 (stereo not given) | >57 | 3.3%
O=S(=O)(c1ccc(F)cc1)N1CCN(c2ncnc3c2cnn3-c2ccccc2)CC1 | >57 | -0.4%
COc1ccc(-n2c(SCC(=O)N3CCCC3)nc3c([nH]c4ccccc43)c2=O)cc1 | >57 | 2.6%
COc1ccc(C)cc1NC(=O)CSc1nnc(COc2ccc(C)cc2)n1Cc1ccco1 | >57 | ?
CC/C(=C(\c1ccccc1)c1ccc(OCCN(C)C)cc1)c1ccccc1 | >57&>57&>57 | ?
Next compounds:
SMILES | Prx2 Sm inh | LT uptake inh
CC(C)(C)n1ncc2c(=O)n(CC(=O)c3ccccc3)cnc21 | >57 | -3.4%
CC(C)NC[C@H](O)c1ccc(N)c(C#N)c1 | >57 | ?
COc1cccc2c1OC1(C)CC2/C(=C(\C)O)C(=O)N1 (stereo not given) | >57 | 0.7%
O=C1Nc2ccccc2OC1CC(=O)N1CCN(c2cccc(C(F)(F)F)c2)CC1 (stereo not given) | >57 | -8.9%
O=C(Nc1ccc(-c2nnc(-c3ccccc3)o2)cc1)C1CCCO1 (stereo not given) | >57 | -14.2%
O=C(Nc1cccc(F)c1)N1CC2(CCN(C(=O)Oc3ccccc3)CC2)C1 | >57 | -21.4%
COC(=O)CSc1nnnn1-c1cccc2ccccc12 | >57 | 5.5%
CCS(=O)(=O)NCc1csc(C)n1 | >57 | -2.1%
COc1cccc(NC(=O)CN2C(=O)C3(OCCCO3)c3ccccc32)c1 | >57 | -20.5%
COc1cc(NC(=O)C(F)(F)F)cc(OC)c1 | / | -5.5%
O=C(NC1CCCc2ccccc21)C1CCN(c2c(N3CCCC3)c(=O)c2=O)CC1 (stereo not given) | >57 | -4.5%
C=CCn1c(=O)/c(=C\c2ccsc2)s/c1=C(/C#N)C(=O)NCCN1CCOCC1 | >57 | -4.1%
CCOc1ccccc1CNS(=O)(=O)c1ccc2[nH]c(=O)sc2c1 | >57 | 3.3%
O=C(COc1ccc2oc(-c3ccccc3)cc(=O)c2c1)NCc1ccco1 | >57 | -14.9%
CCC(C)NC(=O)CC1Oc2ccc(C)cc2NC1=O (stereo not given) | >57 | -3.3%
CCOc1ccc(-n2c(Cc3ccccc3)nnc2SCc2c(C)noc2C)cc1 | >57 | 1.5%
C=CCn1c(C(C)NC(=O)C(C)(C)C)nc2ccccc21 (stereo not given) | >57 | 5.2%
Cn1c(=O)[nH]c(=O)c2c1nc(N1CCCCCC1)n2CCN1CCCCCC1 | >57 | -4.3%
CCc1ccc2oc(=O)cc(CN3CCN(c4ccc(F)cc4)CC3)c2c1 | >57 | 0.2%
COc1ccc(C2N(c3ccc(Cl)cc3)C(=O)C3CCCN32)cc1 (stereo not given) | >57 | -7.1%
CCn1c2ccccc2c2cc(NC(=O)CSc3nnnn3-c3ccccc3)ccc21 | >57 | /
c1ccc(-c2cc(-c3nn4c(-c5ccco5)nnc4s3)c3ccccc3n2)cc1 | >57 | -15.9%
CN(C)c1ccnc2sc(C(=O)NCc3ccccc3)c(N)c12 | >57 | ?
CC(=O)c1cc(CN2C(=O)CCC2=O)cs1 | / | -9.5%
O=C(Cc1cccs1)NCc1cn2ccccc2n1 | / | -0.2%
(cont.)
SMILES | Prx2 Sm inh | LT uptake inh
O=C(Nc1cccc(O)c1)c1cc(S(=O)(=O)N2CCCC2)ccc1Cl | >57 | 1.2%
c1ccc2c(c1)[I+]c1ccccc1-2 | >57&>57 | 15.8µM*
O=C(C1CC1)N1CCN=C1SCc1ccccc1 | >57 | -3.4%
OC(CN(c1ccccc1)c1ccccc1)Cn1cnc2ccccc21 (stereo not given) | >57 | ?
O=c1c(-c2ccccc2)[n+]([O-])c2ccccc2n1O | >57 | -7.8%
COc1cc(OC)cc(-n2nnnc2SCC(=O)N2CCCc3ccccc32)c1 | >57 | ?
Cc1ccc2c(c1)nnn2C1CCN(C(=O)NC23CC4CC(CC(C4)C2)C3)CC1 | >57 | 2.4%
CCOC(=O)N1CCC(NC(=O)Cn2ncc3ccccc32)CC1 | >57 | 4.1%
CC1CCc2c(sc(NC(=O)c3noc4c3CCCC4)c2C(N)=O)C1 (stereo not given) | >57 | 2.6%
O=C(Nc1ccccc1F)N(CCCN1CCOCC1)Cc1cc2cc3c(cc2[nH]c1=O)OCCO3 | >57 | -6.4%
Fc1ccc(-c2cc3nc4c(c(N5CCOCC5)n3n2)CCCC4)cc1 | >57 | -7.2%
COc1ccccc1NC(=O)CSc1nnc(C)n1CCc1ccccc1 | >57 | -3.4%
Cc1ccc(S(=O)(=O)N2CCCCC2)cc1C(=O)Nc1ccc2cn[nH]c2c1 | >57 | -9.3%
COC(=O)c1[nH]c2cccc(Cl)c2c1NC(=O)CN1CCCCC1C (stereo not given) | >57 | ?
COC(=O)CSc1nnc(CNC(=O)Cc2ccccc2)n1C | >57 | 4.0%
O=C(O)CCCC(=O)N1CCc2cc(S(=O)(=O)N3CCc4ccccc43)ccc21 | >57 | 3.2%
Cc1noc(/C=C/N(C)C)c1S(=O)(=O)N1CCCC(C(=O)NCc2ccccc2Cl)C1 (stereo not given) | >57 | -10.9%
COC(=O)c1ccc(C2C(C(=O)Nc3ccccc3C)=C(C)Nc3ncnn32)cc1 (stereo not given) | >57 | -2.0%
Cc1cc(N2CCCc3ccccc32)n2ncnc2n1 | >57 | 0.0%
CC(C)=NOCc1ccc(-c2cn([C@@H]3COC[C@@H]3O)nn2)cc1 | / | 9.0%[1.6 µM]
COc1ccccc1NS(=O)(=O)c1ccc2oc(SC3CCOC3=O)nc2c1 (stereo not given) | >57 | -10.9%
CCC(C)n1c(C)nc2c(c1=O)c1nc3ccccc3nc1n2-c1ccc2c(c1)OCCO2 (stereo not given) | >57 | 2.8%
Cc1cccc(CSc2nnc(Cn3c(=O)sc4ccccc43)n2C)c1 | >57 | -28.6%
COCCn1nnnc1C(c1cc2cc(C)ccc2[nH]c1=O)N1CCN(C2CCCCC2)CC1 (stereo not given) | >57 | 10.1%
O=C(CSc1nnc(-c2cccnc2)n1C1CCCCC1)NC1CCCC1 | >57 | 0.8%

Four entries from above in a different format.
molecule: COC(=O)c1ccc(C2C(C(=O)Nc3ccccc3C)=C(C)Nc3ncnn32)cc1 (stereo not given)
  Prx2 Sm inh: >57
  LT uptake inh: -2.0%
molecule: c1ccc2c(c1)[I+]c1ccccc1-2
  Prx2 Sm inh: >57&>57
  LT uptake inh: 15.8µM*
molecule: COc1ccccc1NC(=O)CSc1nnc(C)n1CCc1ccccc1
  Prx2 Sm inh: >57
  LT uptake inh: -3.4%
molecule: CCC(C)n1c(C)nc2c(c1=O)c1nc3ccccc3nc1n2-c1ccc2c(c1)OCCO2 (stereo not given)
  Prx2 Sm inh: >57
  LT uptake inh: 2.8%

More entries.
SMILES | Prx2 Sm inh | LT uptake inh
CCOC(=O)N1CCN(C(=O)C2CC(=O)N(Cc3ccc(OC)cc3)C2)CC1 (stereo not given) | >57 | -11.0%
Cc1nc2c(C(=O)O)cnn2c(C)c1Cc1ccccc1F | >57 | ?
O=S(=O)(Nc1ccc2c(c1)OCCO2)c1cccc2cccnc12 | >57 | -9.7%
Cc1cc(-c2ccccc2)c(C#N)c(SCC(N)=O)n1 | >57 | ?
CCOc1ccc(N2CC(O)Cn3c2nc2c3c(=O)n(CCCc3ccccc3)c(=O)n2C)cc1 (stereo not given) | >57 | -0.8%
Cn1c(/C(C#N)=C/C2CC=CCC2)nc2ccccc21 (stereo not given) | >57 | -10.6%
COc1ccc(N2CCN(C(=O)c3sc4nc(-c5ccc(F)cc5)cn4c3C)CC2)cc1 | >57 | -8.7%
CC1CCN(c2nc3c(c(=O)n(C)c(=O)n3C)n2CCSc2nc3ccccc3s2)CC1 | >57 | -3.1%
CCc1ccc(Nc2ncc3c(n2)CC(c2ccco2)CC3=O)cc1 (stereo not given) | >57 | 7.1%
CCOC(=O)N1CCN(c2ncnc3c2oc2nc(CC(C)C)c4c(c23)CCC4)CC1 | >57 | ?

Single entries from the entries so far:
`Cn1c(/C(C#N)=C/C2CC=CCC2)nc2ccccc21` (stereo not given) @ LT uptake inh: -10.6%
`CC1CCN(c2nc3c(c(=O)n(C)c(=O)n3C)n2CCSc2nc3ccccc3s2)CC1` @ Prx2 Sm inh: >57
`CCOC(=O)N1CCN(c2ncnc3c2oc2nc(CC(C)C)c4c(c23)CCC4)CC1` @ Prx2 Sm inh: >57
